Screening results: PubChem, several laboratories
YopH inh = inhibitors of Yersinia enterocolitica YopH tyrosine phosphatase; 0.16% of 140,000 active; AID 898; fluorescence Ex485/Em525; inhibition, %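 (about 10 µM by stock and volumes)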;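 active = inhibition of 50% or more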;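 note: controls were vehicle for no effect and minimum signal wells for full effect; inactives centre near -20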
Mtb H37Rv = M. tuberculosis H37Rv growth inhibitors, H37Rv strain (AID 1626); M. tuberculosis H37Rv growth inhibition; higher % means a stronger effect; 0.95% of 220,000 active; one-dose inhibition, % at 10 µM; IC50 in µM for titrated hits;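 active = confirmed in a dose series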;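 note: bacteria incubated seven days before Alamar blue readout; 0% = bacteria only wells and 100% = bacteria with antibiotic wells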
Arbovirus inh = antivirals against arbovirus infection; inhibition, % at 10 µM; 0.37% of 200,000 active; arbovirus infection cell-based antiviral screen;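 active = inhibition from about 30%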;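 note: bluetongue infection of BSR cells; cell survival read as ATP light after 72 h; 0% = infected wells without compound and 100% = uninfected wells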
Mtb bLac sens = beta-lactam sensitization of Mtb H37Rv | M. tuberculosis H37Rv growth with meropenem, percent inhibition; hits of this screen are not shown here | inhibition, % at 25 µM | 0.27% of 330,000 active;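 active = about 74% or more and at least 40 points above the plate without the antibiotic, then above 30% in a dose series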;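 note: growth measured after seven days incubation then overnight dye step; 0% = bacteria only wells and 100% = bacteria with antibiotic; twin plates without the antibiotic show which effects depend on it; some results filed as inactive read as strong as hits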
RecA splice inh = inhibitors of M. tuberculosis RecA intein splicing; inhibition, %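 (about 9 µM by stock and volumes)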; 0.75% of 290,000 active; cell-free RecA intein splicing, fluorescence; in the data active = inhibition above about 30%;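 note: 0% = vehicle wells and 100% = reference inhibitor control wells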
Target sequence (P9WHJ3 whole entry, looked up, canonical isoform): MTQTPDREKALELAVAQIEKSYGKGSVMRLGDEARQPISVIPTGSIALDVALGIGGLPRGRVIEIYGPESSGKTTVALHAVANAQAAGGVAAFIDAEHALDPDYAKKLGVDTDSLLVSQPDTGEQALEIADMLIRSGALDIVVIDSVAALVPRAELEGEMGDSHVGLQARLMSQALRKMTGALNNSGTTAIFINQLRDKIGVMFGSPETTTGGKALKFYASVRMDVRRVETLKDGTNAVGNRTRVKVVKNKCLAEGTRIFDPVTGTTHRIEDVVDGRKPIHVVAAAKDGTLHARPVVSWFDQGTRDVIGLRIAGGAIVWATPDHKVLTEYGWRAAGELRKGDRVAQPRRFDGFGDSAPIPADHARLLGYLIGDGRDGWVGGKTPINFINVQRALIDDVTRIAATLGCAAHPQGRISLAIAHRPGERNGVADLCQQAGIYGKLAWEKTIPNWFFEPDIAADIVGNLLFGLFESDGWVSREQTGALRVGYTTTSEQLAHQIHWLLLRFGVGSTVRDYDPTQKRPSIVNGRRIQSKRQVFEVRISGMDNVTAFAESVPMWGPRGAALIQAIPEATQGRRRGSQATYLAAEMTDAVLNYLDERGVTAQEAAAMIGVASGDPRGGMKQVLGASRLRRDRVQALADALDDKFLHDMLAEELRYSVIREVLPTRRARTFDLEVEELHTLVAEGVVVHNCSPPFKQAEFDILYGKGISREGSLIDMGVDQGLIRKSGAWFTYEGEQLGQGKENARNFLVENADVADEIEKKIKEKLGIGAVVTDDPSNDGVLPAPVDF
Arbovirus inh repeat = second read-out of Arbovirus inh, no call of its own (marks repeat the call); inhibition, %; measured here: 10K subset replicate screen; many hits read low in the repeat;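 first of two repeat runs on a subset; 0% = infected and 100% = uninfected wells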
Numbers without * were called inactive; . = no result given. This is a subset; count on the stated rates, not on these rows.

SMILES | YopH inh | Mtb H37Rv | Arbovirus inh | Mtb bLac sens | RecA splice inh | others
Cc1ccc(S(=O)(=O)N2CCOCC2)cc1C(=O)OCC(=O)Nc1ccc2[nH]c(=O)[nH]c2c1 | . | . | . | -11 | 0.0
COc1ccccc1N1CCN(/N=C/C=C\c2ccco2)CC1 | -12 | 0% | 1 | 44 | 3.1
CCOCCCNS(=O)(=O)c1ccccc1 | 0 | 9% | -2 | -2 | .
CCOC(=O)Nc1ccc2c(c1)N(C(=O)CCN1CCN(C)CC1)c1ccccc1S2 | 44 | 5% | 16 | -2 | -7.9
COC(=O)C1=C(C)OC(N)=C(C#N)C12C(=O)Nc1ccccc12 (configuration not stated) | . | -4% | 1 | -1 | 0.0
OCCN1CCN(c2ncnc3c2c(-c2ccccc2)cn3-c2ccc(F)cc2)CC1 | . | 4% | -34 | -2 | 2.2
CC1(C(=O)Nc2cccc(C(F)(F)F)c2)CO1 (configuration not stated) | . | -5% | 5 | -1 | 3.2
CSCCC(NC(=O)c1ccco1)C(=O)Nc1ccncc1 (configuration not stated) | . | . | . | -16 | -4.7
Cc1cccc(Oc2nc(-c3ccncc3)nc3ccccc23)c1 | . | 8% | . | 45 | 3.7
CCSc1nnc(CNC(=O)C23CC4CC(CC(C4)C2)C3)n1C1CCCCC1 | -26 | . | -1 | 8 | -0.4
COc1ccccc1-c1noc(-c2ccccc2C(=O)NCc2ccco2)n1 | . | -3% | -7 | 8 | 0.4
CCOc1ccc2c(c1)c1nnc(SCC(=O)N3CCCCC3C)nc1n2C (configuration not stated) | -2 | -5% | -17 | 0 | 2.1
COc1cccc(C(C(=O)NC2CCCCC2)N(C(=O)c2ccccn2)c2cccnc2)c1 (configuration not stated) | . | 3% | -1 | 5 | 1.9
O=C(Nc1ccc(Cl)cc1)C1CCCC1 | . | . | . | 4 | 4.8
COc1ccccc1C(=O)N1CCC(C(=O)c2ccc(F)cc2)CC1 | -35 | -4% | 1 | -2 | 1.4
Cn1nnnc1SCCNCc1cc(Cl)ccc1OCc1ccccc1 | -25 | 3% | 6 | 7 | 2.0
CN1/C(=C\C(=O)COC(=O)Cn2nnc(-c3ccccc3)n2)C(C)(C)c2ccccc21 | 1 | 0% | 12 | -2 | 5.8
Cc1cc(C)c2c(N)c(-c3nc4ccccc4[nH]3)sc2n1 | -9 | -2% | 5 | 2 | -7.3
CCCC1=Nc2cc(C(=O)N3CCN(c4ccccn4)CC3)ccc2Sc2ccc(C)cc21 | . | . | . | 3 | 13
NC1=NC(=Nc2ccc(Cl)cc2)c2ccccc21 | -25 | -12% | 9 | 7 | 1.4
O=C(NCC1CCCO1)C12CN(Cc3ccccc3)CC1C(c1cccc([N+](=O)[O-])c1)=NO2 (configuration not stated) | -26 | 13% | 7 | -8 | 3.2
CC(C)c1ccc(Nc2nc(CC(=O)O)cs2)cc1 | . | 5% | -2 | 52 | 1.7
N#Cc1nc(-c2ccc(F)cc2)oc1N1CCCC1 | 1 | . | 5 | -12 | 4.3
CC(=O)c1ccc(NC(=O)/C(Cl)=C/c2ccccc2)cc1 | . | . | 7 | 23 | -6.7
CCN(CC)CC(=O)c1c(N)n(Cc2ccccc2)c(=O)n(C)c1=O | . | 3% | -4 | -1 | -0.2
CC1=C(C(=O)OCC2CCCO2)C(c2ccc(Cl)c(Cl)c2)NC(=O)N1 (configuration not stated) | . | -7% | 0 | -1 | -1.8
O=S(=O)(c1ccc(-c2nc3ccccc3s2)cc1)N1CCCC1 | -3 | 0% | 1 | -8 | -1.6
Cc1ccc(C(=O)NCCNc2ncc(C(F)(F)F)cc2Cl)cc1[N+](=O)[O-] | . | . | . | -2 | -3.0
CCCC(=O)NC(=S)Nc1cccc(NC(=O)c2ccc(Cl)cc2Cl)c1 | -30 | 10% | -3 | -3 | 1.0
COC(=O)c1ccccc1NC(=O)Cn1nnc(-c2ccc(OC)cc2)n1 | -24 | -14% | -10 | 1 | -0.5
O=C(COC(=O)COc1ccccc1Cl)Nc1ccccc1OC(F)F | -14 | -12% | 5 | -6 | 1.6
c1ccc(CCc2nn3c(Cn4nnc5ccccc54)nnc3s2)cc1 | -14 | -8% | 8 | -1 | 2.8
C=C(Br)Cn1c(CC(C)C)nc2ccccc21 | -35 | -6% | 22 | -5 | 0.6 | Arbovirus inh repeat=-3
COC(=O)n1c(=O)oc2ccccc21 | -36 | -4% | 9 | -8 | .
Cc1nnsc1C(=O)N1CCC(CO)(Cc2ccccc2Cl)CC1 | . | 28% | . | -3 | -0.3
CCCCOC(=O)c1cccc(NC(=O)CCC(=O)O)c1 | -33 | -3% | 5 | 8 | -0.6
CS(=O)(=O)N(CC(=O)O)c1cc(Cl)cc(Cl)c1 | -32 | 1% | -5 | -4 | -4.6
O=C(COc1ccccc1[N+](=O)[O-])Nc1cc(C(=O)O)cc(C(=O)O)c1 | . | 2% | 13 | -1 | -2.7
CCn1c(/C=C2/C(=O)N(C)c3ccccc32)nc2ccccc2c1=O | -27 | -7% | 5 | 5 | 3.9
CCn1c2ccc(OC)cc2c2nc3ccccc3nc21 | -28 | 17% | -4 | 74 | -1.3
O=C(NN1C(=O)/C(=C/c2cccc(O)c2)SC1=S)c1ccccc1O | . | . | . | 11 | 2.2
COc1cc2c(cc1OC)C(C)N(CCc1ccc(Cl)cc1)CC2 (configuration not stated) | . | . | . | -3 | 0.1
O=C(CN1CCCCC1)N/N=C/c1cccc(Cl)c1 | . | . | . | 2 | 0.8
CN(C)c1ccc(/C=C2\N=C(c3ccc(Cl)c([N+](=O)[O-])c3)NC2=O)cc1 | . | 29% | -11 | 92 | -1.3
Cc1ccccc1NC(=O)c1c([N+](=O)[O-])cnn1C | . | . | . | -1 | -1.6
COc1ccc(N2CCN(C(=O)C3CC(=O)N(c4ccc(C)cc4)C3)CC2)cc1 (configuration not stated) | . | 0% | 14 | -3 | -1.1
CS(=O)(=O)N1CCN(C(=O)c2ccc(Br)s2)CC1 | -3 | -6% | 3 | -9 | 1.0
CS(=O)c1ccccc1-c1nc(-c2cc(C(F)(F)F)cc(C(F)(F)F)c2)no1 (configuration not stated) | -28 | . | 5 | -2 | 4.4
O=C(CN1C(=O)CSc2ccc(S(=O)(=O)N3CCOCC3)cc21)NCCCN1CCCCC1 | . | . | . | 0 | -2.6
CCOc1ccc(S(=O)(=O)NC2CC2)cc1 | . | . | . | 4 | -5.1
Cn1c(C(=O)O)c(CC(=O)NCc2cccnc2)c2ccccc21 | -27 | -3% | 0 | -2 | 1.7
Cc1cc(N/N=C/c2ccccc2O)c2ccccc2n1 | . | . | . | 99 | 1.2
O=S(=O)(NCC1CCCO1)c1ccc(S(=O)(=O)N(Cc2ccccn2)C2CC2)cc1 (configuration not stated) | -20 | -1% | 4 | 2 | 1.8
CCc1nnc(NS(=O)(=O)c2ccc(N=Cc3c(C)[nH]n(-c4ccc(Cl)cc4)c3=O)cc2)s1 | -8 | 12% | -6 | 0 | -1.0
O=C(COC(=O)c1cc(Cl)ccc1[N+](=O)[O-])NCc1ccc(Cl)cc1Cl | -14 | 8% | 6 | -1 | 2.8
O=C(Cc1ccccc1)Nc1c[nH]c(=O)[nH]c1=O | -10 | -1% | 1 | 1 | -0.4
C[C@@H](C(=O)Nc1ccc2ccccc2c1)[C@@H]1C[C@@]1(C)[C@@H](NC(=O)c1cnccn1)c1ccccc1 | -29 | -2% | -6 | -8 | .
CC(/C=N/Nc1nc(C)cc(C)n1)=C\c1ccc(C(C)C)cc1 | -23 | 5% | 12 | 15 | 1.8
O=C(Nc1cc(S(=O)(=O)N2CCOCC2)ccc1OCC(F)(F)F)c1ccc(N2CCCC2=O)cc1 | . | . | . | 0 | -0.4
CN(C)C(/C=C/Nc1cccc([N+](=O)[O-])c1)=C(C#N)C#N | . | -7% | 20 | 0 | -2.2

Going on with the list.
SMILES | YopH inh | Mtb H37Rv | Arbovirus inh | Mtb bLac sens | RecA splice inh | others
O=C(NCCC1=CCCCC1)C1CCN(C(=O)c2ccc(Br)cc2)CC1 | -35 | -3% | 3 | 2 | 0.5
Cc1cccc(C(=O)NCC(=O)N2CCN(S(=O)(=O)c3cc(C)ccc3C)CC2)c1 | . | . | . | -16 | 4.8
O=c1cnn(-c2ccccc2)c(-c2ccccc2)c1 | -31 | 9% | -3 | 7 | 1.6 | Arbovirus inh repeat=-14
N#Cc1c(-c2ccccc2Cl)cc(-c2ccccc2)nc1Br | -21 | 13% | 12 | 1 | 0.5
O=C(NCC1CCCN1S(=O)(=O)c1cccs1)C(=O)Nc1ccc(F)cc1 (configuration not stated) | . | . | . | -6 | 2.3
COc1cccc(CCc2nnc(CCC(=O)NCCc3cccc(C)n3)o2)c1 | . | -2% | 3 | -1 | 1.7
CN(C)C(C(=O)NC1CCCCC1)c1ccc(Cl)cc1 (configuration not stated) | -11 | -4% | 2 | -2 | -0.5 | Arbovirus inh repeat=0
CCCCCOC(=O)NCC(O)c1ccccc1 (configuration not stated) | -40 | 2% | -3 | 8 | -2.0 | Arbovirus inh repeat=1
COc1cccc(-c2coc3c(C)c4oc(=O)c(CCC(=O)O)c(C)c4cc23)c1 | . | . | . | -4 | -1.9
COc1ccc(C(C)=O)cc1COC(=O)c1ccc(OCc2c(C)noc2C)cc1 | -25 | 10% | -6 | -2 | -3.1
O=S(=O)(Nc1cccc2cccnc12)c1ccccc1 | . | . | . | 97 | 1.7
CCOC(=O)C(=Cc1cn(C)c2ccc(S(=O)(=O)N(C)C)cc12)C(=O)OCC | . | -6% | -7 | 1 | -0.8
CCOC(=O)c1ccc(NC2c3ccccc3C(=O)N2c2ccccn2)cc1 (configuration not stated) | -24 | 13% | 0 | -2 | -0.6
Clc1cccc(OCCN2CCNCC2)c1 | -35 | 1% | 6 | 3 | -1.5
Cc1cc(C)n(CC(O)COCc2ccco2)n1 (configuration not stated) | -33 | -5% | 4 | 4 | .
O=C1CCN(S(=O)(=O)c2ccc(Br)cc2)CCN1 | . | -1% | 3 | -4 | -0.1
O=C1c2ccccc2CCC12N=NCC2c1ccc(Br)cc1 (configuration not stated) | -21 | -1% | 1 | -14 | 12
COc1ccc(C)cc1N(CC(=O)N1CCCCCC1)S(C)(=O)=O | . | . | . | 3 | -2.0
COc1ccc(N(C(=O)Cc2cccs2)C2C=CS(=O)(=O)C2)cc1 (configuration not stated) | . | -5% | -2 | -8 | 3.6
C/C(=N\Nc1ncnc2sc(C)c(C)c12)c1ccccn1 | . | . | . | 98 | -30
CN(C(=O)c1cccc(S(=O)(=O)N2CCCCC2)c1)C1CCS(=O)(=O)C1 (configuration not stated) | . | . | . | -12 | -0.7
COc1cc(OC)cc(C(=O)Nc2sc3c(c2C(N)=O)CCC3)c1 | . | . | . | 6 | -22
O=C1N=C(N2CCOCC2)S/C1=C\c1cccs1 | . | -10% | -2 | -4 | 0.9

A draw from above in order of molar mass, ascending.
SMILES | YopH inh | Mtb H37Rv | Arbovirus inh | Mtb bLac sens | RecA splice inh | others
Clc1cccc(OCCN2CCNCC2)c1 | -35 | 1% | 6 | 3 | -1.5
Cc1cc(C)n(CC(O)COCc2ccco2)n1 (configuration not stated) | -33 | -5% | 4 | 4 | .
CCCCCOC(=O)NCC(O)c1ccccc1 (configuration not stated) | -40 | 2% | -3 | 8 | -2.0 | Arbovirus inh repeat=1
O=C1N=C(N2CCOCC2)S/C1=C\c1cccs1 | . | -10% | -2 | -4 | 0.9
O=S(=O)(Nc1cccc2cccnc12)c1ccccc1 | . | . | . | 97 | 1.7
CN(C)C(C(=O)NC1CCCCC1)c1ccc(Cl)cc1 (configuration not stated) | -11 | -4% | 2 | -2 | -0.5 | Arbovirus inh repeat=0
C/C(=N\Nc1ncnc2sc(C)c(C)c12)c1ccccn1 | . | . | . | 98 | -30
COc1cc(OC)cc(C(=O)Nc2sc3c(c2C(N)=O)CCC3)c1 | . | . | . | 6 | -22
COc1ccc(C)cc1N(CC(=O)N1CCCCCC1)S(C)(=O)=O | . | . | . | 3 | -2.0
O=C1c2ccccc2CCC12N=NCC2c1ccc(Br)cc1 (configuration not stated) | -21 | -1% | 1 | -14 | 12
COc1ccc(N(C(=O)Cc2cccs2)C2C=CS(=O)(=O)C2)cc1 (configuration not stated) | . | -5% | -2 | -8 | 3.6
CCOC(=O)c1ccc(NC2c3ccccc3C(=O)N2c2ccccn2)cc1 (configuration not stated) | -24 | 13% | 0 | -2 | -0.6
COc1cccc(-c2coc3c(C)c4oc(=O)c(CCC(=O)O)c(C)c4cc23)c1 | . | . | . | -4 | -1.9
COc1cccc(CCc2nnc(CCC(=O)NCCc3cccc(C)n3)o2)c1 | . | -2% | 3 | -1 | 1.7
CCOC(=O)C(=Cc1cn(C)c2ccc(S(=O)(=O)N(C)C)cc12)C(=O)OCC | . | -6% | -7 | 1 | -0.8
